Assay outcomes from PubChem BioAssay.
VDR inh: vitamin D3 receptor (human) inhibition; P11473; VDR-SRC2-3 peptide fluorescence polarization, 2 h; Potency, µM, for inactives: max response, negative = inhibition, usual class: inhibitors; 0.93% of 400,000 active; active = well fitted inhibition curve with a large enough effect; inconclusive = small, poorly fitted or top-dose-only effect, or another doubt; inactive = no such curve, though single readings can be large or run the other way; note: series mostly up to about 120 µM
Target sequence (P11473 whole entry, looked up): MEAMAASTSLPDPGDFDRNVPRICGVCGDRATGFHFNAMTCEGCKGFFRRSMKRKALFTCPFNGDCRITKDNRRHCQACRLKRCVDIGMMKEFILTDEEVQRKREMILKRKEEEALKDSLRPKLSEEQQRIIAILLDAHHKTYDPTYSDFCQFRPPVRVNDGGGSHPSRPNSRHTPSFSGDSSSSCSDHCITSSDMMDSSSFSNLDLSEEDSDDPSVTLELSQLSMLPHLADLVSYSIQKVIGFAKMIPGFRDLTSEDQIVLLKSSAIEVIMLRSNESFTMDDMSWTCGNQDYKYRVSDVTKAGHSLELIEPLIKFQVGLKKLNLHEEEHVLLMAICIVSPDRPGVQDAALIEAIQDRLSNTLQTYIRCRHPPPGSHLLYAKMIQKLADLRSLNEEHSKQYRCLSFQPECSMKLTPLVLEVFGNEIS
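Measured by FP: displacement of SRC2-3 coactivator peptide from VDR by library compounds, following a two-hour ambient incubation.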
* = called active by the depositor; ? = inconclusive; & = joins results of further samples. % is set by controls: 0 for no effect and ±100 for the full control effect; potency is the fitted concentration of half-maximal effect.

VDR inh | Molecule
-16% | COc1cc(OC)c(S(=O)(=O)Nc2ccccc2C(=O)O)cc1S(=O)(=O)Nc1ccccc1C(=O)O
-9% | COc1ccc(N2C(=O)CC(N3CCN(c4ccc(S(C)(=O)=O)cc4)CC3)C2=O)cc1 (stereo unspecified)
26% | COC(C(=O)N/N=C(\C)c1ccc(C(C)(C)C)cc1)c1ccccc1 (stereo unspecified)
5% | O=C(CSc1cc(Cl)ccc1Cl)NCCN1C(=O)CSC1=O
4% | Cc1ccc(/C=N\NC(=O)c2cc(OCC(F)(F)F)ccc2OCC(F)(F)F)cc1
1% | CC(C)(C)c1nc(SCC(=O)NCc2cccs2)c2ccccc2n1
1% | CC1(C)CC(=O)C=C(Nc2cccc(C(F)(F)F)c2)C1
-15% | O=C(NCc1cccs1)c1ccccc1F
-23% | O=C(CN1CCN(c2ccccc2F)CC1)NC(=O)NCc1ccccc1
? | COc1cccc(C(=O)Oc2ccccc2/C=C\C(=O)c2cc3ccccc3o2)c1
-21% | CSc1ccc(CN(C)CC(=O)NCc2ccccc2)cc1
-6% | C=CCn1cn[nH]c1=S

The list goes on; it opens with the 4 that closed the last part.
VDR inh | Molecule
-23% | O=C(CN1CCN(c2ccccc2F)CC1)NC(=O)NCc1ccccc1
? | COc1cccc(C(=O)Oc2ccccc2/C=C\C(=O)c2cc3ccccc3o2)c1
-21% | CSc1ccc(CN(C)CC(=O)NCc2ccccc2)cc1
-6% | C=CCn1cn[nH]c1=S
4% | O=C1NCCN(Cc2ccoc2)C1CC(=O)N(Cc1ccccc1)CC1CCC1 (stereo unspecified)
10% | O=C(CN1C(=O)c2ccc([N+](=O)[O-])cc2C1=O)NCc1ccco1
-20% | CCOC(=O)c1sc2nc(CSc3ccccc3)[nH]c(=O)c2c1C
-5% | CCOC(=O)Nc1ccc(C)cc1C
3% | C#CCOc1ccc(/C=C2\SC(=S)N(Cc3cccnc3)C2=O)cc1
10% | COc1ccc(C(=O)CSc2nc(C)cc(=O)[nH]2)cc1C
3% | Cc1ccc(NC(=O)Cn2nnc3sc(-c4ccccc4)cc3c2=O)cc1Cl
-21% | O=C(Nc1cccc(-c2cccc(F)c2)c1)C1CCN(Cc2ccc(CO)o2)CC1
10% | COc1nc(N)nc(N2CCOCC2)n1
4% | O=C(c1ccc(F)cc1)c1cc2ccc(O)cc2oc1=O
0% | CCN(Cc1ccccc1)C(=O)CN1C(=O)NC2(CC(C)CC(C)(C)C2)C1=O (stereo unspecified)
2% | Cn1[nH]c(-c2ccccc2)c(/C=N/O)c1=O

3 entries out of the list above, arranged by the value under VDR inh, smallest number first:
mol	VDR inh
CCOC(=O)c1sc2nc(CSc3ccccc3)[nH]c(=O)c2c1C	-20%
CCOC(=O)Nc1ccc(C)cc1C	-5%
COc1nc(N)nc(N2CCOCC2)n1	10%

(list continues)
VDR inh | Molecule
7% | CC(C)(C)c1ccc(-c2nc(NC(=O)CSc3ncnc4sc5c(c34)CCCC5)ns2)cc1
-8% | CC(=O)c1ccc(N2CCN(C(=O)/C=C/c3cccs3)CC2)cc1
-1% | COc1ccc(CNS(=O)(=O)c2ccc(C3CNC(=O)C3)cc2)cc1 (stereo unspecified)
13% | NC(=O)CSc1nnnn1-c1ccc(OC(F)(F)F)cc1
-9% | O=C(COc1ccccc1Cl)Nc1ccc2oc(-c3ccccc3F)nc2c1
3% | CCn1cc(CN2CCCC(CO)(Cc3cccc(Cl)c3)C2)cn1 (stereo unspecified)
-7% | CC(OC(=O)CN1C(=O)C2C3C=CC(C4CC34)C2C1=O)C(=O)c1ccccc1 (stereo unspecified)
7% | O=C(NCCc1ccccc1)C(=O)NCc1ccncc1
1% | Fc1ccccc1CNC(=S)Nc1cccc(C(F)(F)F)c1
-21% | COc1ccc(/C=C/C(=O)Nc2ccc(S(=O)(=O)N3CCOCC3)cc2)c(OC)c1
-1% | COC(=O)c1cc(CC(=O)c2ccc(O)cc2O)c(C)o1
7% | O=S(=O)(c1ccc(Cl)cc1)N1CCN(c2ccccn2)CC1
-17% | Cc1sc2nc(SCC(=O)N3CC(C)OC(C)C3)n(C)c(=O)c2c1C (stereo unspecified)
-8% | O=C(O)CCc1ccc(-c2ccc(F)cc2)n1CC(=O)O
6% | CCCOc1ccc(-c2cnc(N)s2)cc1
? | O=C(O)c1cccnc1Sc1ccc(Cl)cc1
3% | O=C(NCc1ccccc1)C1CCCN(C(=O)NCc2ccccc2)C1 (stereo unspecified)
-23% | CCOc1ccc(-c2cc(C(=O)N/N=C/c3cccnc3)c3ccccc3n2)cc1
-1% | COc1cc(C)c(S(=O)(=O)N2CCCC2)cc1C
-8%&-4% | CCn1cc(C(=O)N2CCN(c3cccc(Cl)c3)CC2)c2cc(OC)c(OC)cc2c1=O
2% | CCOC(=O)c1cn(-c2c(Cl)cccc2Cl)c2cc(Cl)c([N+](=O)[O-])cc2c1=O
-11% | CS(=O)(=O)N(CC(=O)N1CCC(C(N)=O)CC1)Cc1ccc(Cl)c(Cl)c1
5% | COc1cccc(CNc2nc3c(-c4ccccc4)nnn3c3ccccc23)c1
-8% | CCOC(=O)c1cnc(SC)nc1Oc1cccc(NS(=O)(=O)c2ccccc2)c1
13% | Cc1nnc(SCCn2c(N3CC(C)CC(C)C3)nc3c2c(=O)[nH]c(=O)n3C)s1 (stereo unspecified)
6% | O=C(c1ccco1)N1CCN(C(=O)N2CCCCC2)CC1
20% | CCN1C(=O)/C(=C/N2CCc3ccccc3C2)SC1=S
-13% | COc1ccc(-c2nc(CN3CCC(C(=O)N4CCOCC4)CC3)c(C)o2)cc1C
-1% | COc1ccc2c(C)c(CCC(=O)NCc3ccc(C)cc3)c(=O)oc2c1
7% | COc1ccc(-c2nn(-c3ccccc3)cc2/C=C(\C#N)S(=O)(=O)c2ccccc2)cc1OC
-5% | O=C(Nc1cccc2ccccc12)OCc1ccccc1
11%&3% | C=C1CC[C@H](O)C/C1=C/C=C1\CCC[C@]2(C)C([C@H](C)CCCC(C)(C)O)CC[C@@H]12 (stereo partly specified)
2% | COc1ccc(CCC(C)Nc2ccccc2F)cc1 (stereo unspecified)
-1% | O=C(O/C(=C/c1ccccc1)C(F)(F)F)c1ccccc1
20µM* | CC(=O)Nc1ccc(NC(=O)C2CCC(N3C(=O)C4C5C=CC(C6CC56)C4C3=O)CC2)cc1 (stereo unspecified)
7% | CC12CCC(C(=O)Nc3cccc4ccccc34)(C1Br)C2(C)C (stereo unspecified)
23% | CCOc1cccc2cc(-c3nc(-c4ccc(Cl)cc4)c(C)s3)c(=O)oc12
? | CNC(=O)c1c(NC(=O)CCS(=O)(=O)c2ccc(C)cc2)sc2c1CCN(C(=O)OC)C2
-14% | Cc1cc(NS(=O)(=O)c2ccc(NC(=O)C(C)Oc3ccccc3Cl)cc2)no1 (stereo unspecified)
-4% | O=C(NC(=S)Nc1ccccc1O)c1ccccc1Cl
-3% | CN(CC(=O)Nc1ccc2c(c1)OCCO2)Cc1nc2ccccc2c(=O)[nH]1
-12% | COc1ccccc1N1CCN(Cc2nc(N)nc(Nc3ccccc3)n2)CC1
-22% | CN(C)c1ccc(N=Nc2ccccc2C(=O)OCC(=O)NCC2CCCCC2)cc1
-2% | CN(CC(=O)Nc1ccc(Cl)c(Cl)c1)Cc1nnc(-c2ccc(F)cc2)o1
-5% | CCCC1(CCC)NC(=O)N(CC(=O)N2CCc3ccccc32)C1=O
-2% | Cc1[nH]n(-c2cccc(Cl)c2)c(=O)c1-c1ccccc1
6% | COc1ccc(-c2c[n+](CC(=O)OC3CC(C)CCC3C(C)C)c3n2CCC3)cc1 (stereo unspecified)
? | CCCCn1c(SCC(=O)Nc2sc3c(c2C(N)=O)CCC3)nnc1-c1ccccc1
-4% | O=C(Nc1c(-c2ccccc2)nc2ncccn12)c1cc2ccccc2oc1=O
-14% | O=C(NC(Cc1ccccc1)C(=O)O)/C(=C/c1ccc([N+](=O)[O-])cc1)NC(=O)c1ccc(Br)o1 (stereo unspecified)
19% | O=C(NC1CC1)c1ccc2c(c1)C1C3CCC(C3)C1C(c1ccccc1)N2 (stereo unspecified)
-1% | COc1ccc(C2=C(c3ccc(OC)c(OC)c3)CN3CCCCC3C2)cc1 (stereo unspecified)
-6% | CC(C)C[C@H](NC(=O)[C@H](CC(C)C)NC(=O)[C@H](Cc1ccc(O)cc1)NC(=O)CNC(=O)[C@H](C)NC(=O)[C@H](CO)NC(=O)[C@H](CC(N)=O)NC(=O)[C@H](CC(C)C)NC(=O)[C@@H](NC(=O)[C@H](Cc1c[nH]c2ccccc12)NC(=O)CN)[C@@H](C)O)C(=O)NCC(=O)N1CCC[C@H]1C(=O)N1CCC[C@H]1C(=O)N1CCC[C@H]1C(=O)NCC(=O)N[C@@H](Cc1ccccc1)C(=O)N[C@@H](CO)C(=O)N1CCC[C@H]1C(=O)N[C@@H](Cc1ccccc1)C(=O)N[C@@H](CCCNC(=N)N)C(N)=O
5% | CC(C)(C)c1ccc(C(=O)NCCc2csc3nc(-c4ccccc4F)nn23)cc1
-8% | CCOC(=O)C1(C)C=C(Nc2ccc(OC)cc2)C(=O)N1c1ccccc1 (stereo unspecified)
? | O=C(c1ccco1)n1nc(-c2ccccc2)nc1NCc1ccco1
9% | CC(C)[C@H](NC(=O)[C@@H]1Cc2ccccc2CN1C(=O)OC(C)(C)C)C(=O)NCc1ccco1
-2% | CCC(C(=O)OCc1cc(=O)n2nc(C)sc2n1)c1ccccc1 (stereo unspecified)
-17% | CCOc1ccc(/C=C2\SC(=S)N(CCC(=O)Nc3cccc(C(=O)O)c3)C2=O)cc1
-6% | O=C(NC1CC1)C1CCC(=O)N1C1CCCC1 (stereo unspecified)

Continuation.
VDR inh | Molecule
11% | Cc1cccc(NC(=S)NCc2ccccc2)c1C
16% | NC(=O)c1ccccc1NC(=O)CN1CCN(Cc2ccccc2)CC1
12% | O=C(CSc1nnc(-c2ccncc2)o1)N1CCc2ccccc2C1
-24% | CCOC(=O)Nc1ccc(NC(=O)c2ccccc2F)cc1
-1% | CCN(CCNC(=O)C1CCN(S(=O)(=O)CC)CC1)c1ccccc1
-3% | CC12C(=O)N(c3cccc4cccnc34)C(=O)C1C1C=CC2C1 (stereo unspecified)
-23% | Cc1cccn2c(=O)c(C=O)c(Sc3ncccn3)nc12
-5% | COc1ccc(C(CNC(=O)c2ccc(C)c(S(=O)(=O)N3CCCCC3)c2)N(C)C)cc1OC (stereo unspecified)
7% | Nc1nc(SCC(=O)c2c(N)n(Cc3ccccc3)c(=O)[nH]c2=O)n[nH]1
1% | CCCNC(=O)c1nn2c(C(F)(F)F)cc(-c3ccccc3)nc2c1Br
-7% | COc1cccc(-n2c(Cn3nc(C(F)F)cc3C(F)F)n[nH]c2=S)c1
-2% | Cc1cccc(NC(=O)c2cnn(-c3ccccc3)c2C)c1C
? | O=C(COC(=O)C1(c2ccccc2)CCCC1)N1CCNC1=O
21% | O=C(NNC(=O)c1ccccc1O)c1ccc(Cl)c(S(=O)(=O)N2CCCCC2)c1
-6% | CCOc1ccc(N(CC(=O)NCCSCc2ccccc2)S(C)(=O)=O)cc1
-19% | Cc1cc(/C=N/NC(=O)c2ccc(O)cc2)c(C)n1C1CC1
7% | COc1cc(CN2CCC(CCC(=O)NC3CC3)CC2)cc(Cl)c1OC
? | CCC[C@H]1CC(=O)C=C(c2ccc(OC)cc2)ON1C(=O)OC(C)(C)C
-5% | Nc1ccc(Oc2ccccc2-c2ccccc2)cc1
-9% | CC(=O)c1ccc(OC(=O)N2CCOCC2)cc1
-9% | C=CCn1cc([N+](=O)[O-])nc1C
7% | OC[C@H]1O[C@@H](O[C@@H]2OC=C[C@H]3[C@H](O)[C@@H]4O[C@]4(CO)[C@@H]23)[C@H](O)[C@@H](O)[C@@H]1O
-1% | COc1ccc(CC(=O)Nc2ccc(-c3nc4ccccc4s3)c(C)c2)cc1
4% | O=C(c1ccc2c(c1)OCO2)C1CCCN(Cc2cccn2-c2cccnc2)C1 (stereo unspecified)
-12% | O=C(Nc1ccccc1Oc1cccnc1)C1CCCN(C/C=C/c2ccc(F)cc2)C1 (stereo unspecified)
3% | CN1C(=O)SC(Nc2ccc(F)cc2)C1=O (stereo unspecified)
-20% | COc1cc(C2Nc3cc(Cl)c(S(N)(=O)=O)cc3S(=O)(=O)N2)ccc1OCc1ccccc1 (stereo unspecified)
1% | CCCCn1c(N)c(N(CCC(C)C)C(=O)CSc2nnc3ccccn23)c(=O)[nH]c1=O
? | CCOc1ccc(N2C(=O)/C(=C/c3ccc(C)o3)N(C)C2=S)cc1
-9% | CC(NC(=O)Nc1ccc(O)cc1)(C(F)(F)F)C(F)(F)F
-6% | CCOc1ccc(-n2ccc(=O)c(C(=O)Nc3ccc(S(=O)(=O)N4CCOCC4)cc3)n2)cc1
-16% | CC(C)CCN1CCN(Cc2nc(-c3ccc(F)cc3)cs2)CC1CCO (stereo unspecified)
0% | O=C(N1CCOCC1)N1CCN(CC(O)COc2ccc3ccccc3c2)CC1 (stereo unspecified)

2 of the compounds above, with each value named:
Cc1ccc(NC(=O)Cn2nnc3sc(-c4ccccc4)cc3c2=O)cc1Cl
- VDR inh: 3%

O=C(Nc1cccc(-c2cccc(F)c2)c1)C1CCN(Cc2ccc(CO)o2)CC1
- VDR inh: -21%

This is a subset. The share of hits here may be higher or lower than overall.
